CtBP-E1A blk – inhibitors of CtBP/E1A interaction | AlphaScreen GST-E1A/His-CtBP binding, 1536-well; active compounds read low; control for the full effect not named in the record | activity change, % (concentration not given with the values) | 340,000 tested, 0.49% active; in the data active means activity change below about -65%; inconclusive means about -30% to -65%; inactive means above about -30%; further: on the % scale 0 is the no-effect control and ±100 the full control effect
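GST-E1A and His-tagged CtBP (125 nM each as 5X stock) were preincubated with pin-transferred compound for 2 h at 37 °C in the dark, then glutathione donor and nickel acceptor beads were added for 1 h before AlphaScreen reading.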
gsp antag – antagonizes gsp, the McCune-Albright syndrome mutation; Potency, µM (highest dose often 76.9 µM), for inactives: at the highest dose activity change, negative = inhibition, actives largely listed as inhibitors; AID 624288; 340,000 tested, 0.4% active; gsp-mutant cells, cAMP HTRF, 30 min; control for the full effect not named in the record; active = falling curve of any shape with a large fitted effect; inconclusive = falling curve, mostly with a smaller effect; inactive = flat or rising curve; cell line not stated here;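 further: intracellular cAMP measured with PDE inhibitor Ro 20-1724 present during compound exposure; potency means the concentration at half of the fitted maximal effect; on the % scale 0 is the no-effect control and ±100 the full control effect; nearly all actives have a fitted effect of over 65% in size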
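Cells in G418 medium, seeded 16-24 h, 37C; buffer exchange to DPBS + 1 mM CaCl2, 0.5 mM MgCl2, 0.05% BSA; cpds in DMSO + […] (300 uM stock), 30 min 37C; HTRF cAMP detection.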
D2 potentiator – potentiates the human D2 dopamine receptor allosterically; potentiation, % (no concentration beside the values); P14416; 360,000 tested, 0.23% active; DiscoveRx D2 beta-arrestin cells, luminescence, 90 min; 100% = 57 uM dopamine signal; AID 624464; active = potentiation of 50% or more; inconclusive = 30% to 50%; inactive = 30% or less;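 further: compound concentration not given in the record; tested on top of an EC20 dose of dopamine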
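PathHunter D2 cells, attached overnight at 37 deg C, received compound in DMSO plus dopamine at EC20 (50 nM final) for 90 min at 37 deg C. Beta-arrestin recruitment was read as luminescence after 1 h with detection reagent at ambient temperature.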
gsp agonist – gsp mutant agonism. gsp mutant cells, cAMP HTRF, 30 min; control for the full effect not named in the record. Potency, µM (doses to about 76.9 µM), for the others: at the top dose activation (cAMP increase), hits mostly activators. 340,000 tested, 0.13% active. AID 624287; active = well fitted activation curve with a large enough effect; inconclusive = small, poorly fitted or top-dose-only effect, or another doubt; inactive = no such curve, though single readings can be large or run the other way; cell line not stated here;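 further: phosphodiesterase inhibitor Ro 20-1724 added with compounds to block cAMP breakdown; potency means the concentration at half of the fitted maximal effect; nearly all actives have a fitted effect of over 60% in size; about a fifth of the inactives were tested at one dose only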
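Cells stably selected in G418 were plated at 2000/well, grown 16-24 hr, then given compounds in DMSO with the PDE inhibitor […] (300 uM solution added) for 30 min at 37C; cAMP was read by HTRF.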
Six1-Eya2 blk – inhibitors of human Six1/Eya2 interaction | 360,000 tested, 0.56% active | AlphaScreen GST-Six1/His-Eya2 binding, biochemical; active compounds read low; control for the full effect not named in the record | activity change, % (test concentration not listed); in the data active = activity change below about -65%; inconclusive = about -30% to -65%; inactive = above about -30%; further: on the % scale 0 is the no-effect control and ±100 the full control effect
Target sequence (O00167 whole entry, looked up): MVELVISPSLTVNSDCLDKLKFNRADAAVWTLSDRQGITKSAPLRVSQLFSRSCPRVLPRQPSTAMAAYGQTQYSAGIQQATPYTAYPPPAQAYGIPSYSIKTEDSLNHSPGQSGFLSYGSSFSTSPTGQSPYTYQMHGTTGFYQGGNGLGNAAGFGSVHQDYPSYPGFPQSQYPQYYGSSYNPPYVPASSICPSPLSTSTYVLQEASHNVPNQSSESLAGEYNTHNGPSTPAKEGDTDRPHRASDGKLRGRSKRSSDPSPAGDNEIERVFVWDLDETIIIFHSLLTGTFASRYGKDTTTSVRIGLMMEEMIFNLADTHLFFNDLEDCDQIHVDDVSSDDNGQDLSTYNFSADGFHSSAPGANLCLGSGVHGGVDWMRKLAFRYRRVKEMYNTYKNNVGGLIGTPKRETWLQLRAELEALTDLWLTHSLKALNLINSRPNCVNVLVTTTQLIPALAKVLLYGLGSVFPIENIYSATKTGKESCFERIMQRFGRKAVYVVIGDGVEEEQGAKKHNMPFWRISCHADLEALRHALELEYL
Target sequence (Q15475 whole entry, looked up): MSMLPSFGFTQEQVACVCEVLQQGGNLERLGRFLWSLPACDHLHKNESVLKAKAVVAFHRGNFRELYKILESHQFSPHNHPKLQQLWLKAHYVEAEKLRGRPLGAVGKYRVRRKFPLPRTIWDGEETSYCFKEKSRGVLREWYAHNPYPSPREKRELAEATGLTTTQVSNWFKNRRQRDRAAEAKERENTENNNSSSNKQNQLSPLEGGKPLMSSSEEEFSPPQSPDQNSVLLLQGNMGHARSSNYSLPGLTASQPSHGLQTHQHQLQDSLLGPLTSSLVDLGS
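AlphaScreen luminescence read after one hour at 37 °C in darkness. Pin-transferred compounds met GST-Six1 and His-Eya2 protein (5X stock 250 nM/500 nM) plus glutathione donor and Ni-chelate acceptor beads (5X, 50 ug/mL).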
D2 agonist – human D2 receptor agonism in beta-arrestin assay. DiscoveRx PathHunter D2 beta-arrestin, luminescence, 90 min; 100% = 57 uM dopamine signal. activation, % (test concentration not listed). 360,000 tested, 0.084% active. AID 624465; in the data active = activation above about 40%; inconclusive = about 15% to 40%; inactive = below about 15%; further: compound concentration not given in the record; the text of the record calls up to 30% inactive
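DiscoveRx PathHunter D2 beta-arrestin cells (2,100/well) attached overnight, then compound-stimulated 90 min at 37 C in HBSS/10 mM HEPES/0.1% Tween-20 buffer; beta-galactosidase complementation read by luminescence after 1 h at ambient temperature. Dopamine 57 uM final (EC100) as control.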
Starred values were filed as active, the others as inactive; ? = inconclusive; nt = not tested or not shown; [ ] = remark or other dose.

smiles | CtBP-E1A blk | gsp antag | D2 potentiator | gsp agonist | Six1-Eya2 blk | D2 agonist
CC(=O)N1CN(C2CC(C)(C)NC(C)(C)C2)Cc2c1sc1c2CCCC1 | 2 | 5% | -3 | -18% | -4 | 1.2
CC(CC(=O)N1CCN(c2ccccc2)CC1)c1ccccc1 (stereo not drawn) | 2 | 8% | -7 | 0% | 1 | 0.3
Cn1cccc1C(=O)NC(=O)COC(=O)c1cc(S(=O)(=O)N2CCCCC2)ccc1Cl | nt | -10% | -2 | -22%[15.4 µM] | -24 | 6.7
O=C(O)C/C(=C\c1cc(Cl)c2c(c1)OCO2)c1nc2ccccc2s1 | -1 | -18% | -2 | -32%[inhibitor] | -12 | -0.9
Cc1ccccc1C(=O)Nc1cccc(NC(=O)c2ccc(F)cc2)c1 | -3 | -10% | -1 | -14% | 4 | 1.3
O=C(c1ccccc1)c1ccc(OCCOCCN2CCN(Cc3ccccc3)CC2)cc1 | 0 | -4% | -9 | -1%[15.4 µM] | -25 | -1.8
O=C(c1ccccc1)N1CCN(CC(O)COCC2CC=CCC2)CC1 (stereo not drawn) | 2 | -4% | -14 | 3% | 0 | -1.0
COc1ccc(C(=O)CSc2nnc(-c3cc(C)cc(C)c3)o2)cc1 | 12 | -7% | -9 | -65%[inhibitor] | 7 | 0.5
O=C(O)c1ccc(CNC(=O)C23CC4CC(CC(C4)C2)C3)cc1 | -2 | -2% | -7 | -21%[15.4 µM] | 2 | -4.1
COCCOC(=O)C1=C(C)NC2=C(C(=O)CCC2)C1c1ccc(N(C)C)cc1 (stereo not drawn) | 5 | 0% | 1 | -27% | -1 | 1.1
C[C@H](O)C#Cc1ccc2c(c1)O[C@@H](CN(C)C(=O)c1ccncc1)[C@@H](C)CN([C@H](C)CO)S2(=O)=O | -5 | nt | -15 | -40%[inhibitor] | 11 | -7.1
COc1ccc(N2CC(C(=O)N/N=C/c3c[nH]c4ccccc34)CC2=O)cc1 (stereo not drawn) | -12 | -19% | -7 | 12%[15.4 µM] | -3 | -6.3
COc1cccc(CNC(=O)CN2C(=O)COc3ccc(S(=O)(=O)N4CCOCC4)cc32)c1 | nt | -2% | -6 | -5% | -6 | 2.2
CCc1ccc(-c2csc3[n+]2CCN3C(C)=O)cc1 | 7 | 4% | 15 | -14% | -1 | 2.2
Cc1nnc(NC(=O)C2CCN(S(=O)(=O)c3cc([N+](=O)[O-])ccc3Cl)CC2)o1 | -82* | 35µM* | 2 | -29% | -69* | ?
c1cc2c(cc1-c1cnc3n1CCC3)OCCO2 | -1 | 8% | -7 | -24% | -1 | -1.6
Cc1ccc(C(=O)O/N=C/c2ccc(N(C)C)cc2)cc1 | 0 | 11% | 1 | -2%[15.4 µM] | 4 | 1.3
CCCn1cc(CN2CCC(Cc3cccc(F)c3)(C(=O)OCC)CC2)c(C)n1 | 3 | -3% | -23 | 8% | -3 | -2.6
OC(c1ccc(Cl)c(Cl)c1)c1ncc(-c2ccccc2Cl)[nH]1 (stereo not drawn) | -5 | nt | -9 | nt | -5 | 4.4
O=C(c1cnn2c1NC(c1ccc(Br)cc1)CC2C(F)(F)F)N1CCN(C23CC4CC(CC(C4)C2)C3)CC1 (stereo not drawn) | -5 | 2% | -15 | -8% | -11 | 0.3
O=C(N/N=C/c1ccccn1)NC12CC3CC(CC(C3)C1)C2 | -15 | -8% | -5 | -17% | -3 | -2.2
CSc1nc(Cl)c(C#N)c(-c2ccc(C)cc2)n1 | 8 | -23% | 12 | 11% | 0 | -0.8
CCOC(=O)C1CCCN(S(=O)(=O)c2ccc(S(N)(=O)=O)cc2)C1 (stereo not drawn) | 6 | -5% | 0 | 19% | 8 | 5.4
CCOC(=O)CC1CCCCN1C(=O)c1cc(COc2cccc3cnccc23)on1 (stereo not drawn) | nt | ? | -14 | -32%[inhibitor] | -1 | -3.3
Nc1nonc1-c1nc2ccccc2[nH]1 | -1 | 1% | -7 | -3% | -2 | -2.5
COc1ccc(CC(=O)Nc2ccc(OC)c(NC(=O)c3ccco3)c2)cc1 | -5 | -2% | -30 | -43%[inhibitor] | -3 | -3.2
O=C(Nc1ncccc1Cl)C1COc2ccccc2O1 (stereo not drawn) | 10 | -4% | -3 | -60%[inhibitor] | -2 | -2.0
COc1cccc(OC)c1C(=O)OCCCOC(=O)c1c(OC)cccc1OC | -7 | 0% | -14 | 27% | -5 | -2.3
Clc1ccc(C[n+]2csc3ccccc32)cc1 | 1 | 10% | -14 | -11% | -13 | -5.0
CCCCNC(=O)CCCCCNS(=O)(=O)c1ccc(OC)cc1 | -9 | 4% | -7 | 0% | 0 | 2.0
CC(C)(C)C(=O)COC(=O)c1cc2ccccc2cc1O | 8 | 8% | 4 | -15% | 6 | 2.6
Cc1cc(NC(=O)CSCC(=O)N(C)Cc2c(F)cccc2Cl)no1 | 2 | -2% | -22 | -7% | -1 | -2.8

Three entries from above, arranged by the value under D2 potentiator, high to low.
Structure	D2 potentiator
CC(C)(C)C(=O)COC(=O)c1cc2ccccc2cc1O	4
CCCCNC(=O)CCCCCNS(=O)(=O)c1ccc(OC)cc1	-7
COc1cccc(OC)c1C(=O)OCCCOC(=O)c1c(OC)cccc1OC	-14

Following part.
smiles | CtBP-E1A blk | gsp antag | D2 potentiator | gsp agonist | Six1-Eya2 blk | D2 agonist
Cc1nn(-c2ccccc2)c(Cl)c1C1C(C#N)=C(N)OC2=C1C(=O)CCC2 (stereo not drawn) | -1 | -26% | 8 | -11% | 0 | -0.4
O=C(Nc1nnc(S(=O)(=O)N2CCN(c3ccc(F)cc3)CC2)s1)c1ccco1 | 3 | -24% | -4 | 9% | -4 | -4.0
Cc1ccc(NC(=O)Nc2nnc(-c3ccncc3)s2)cc1C | 6 | 45µM* | 3 | -1% | -5 | -1.4
COc1ccc(CCNC(=O)C2=COCCO2)cc1 | 7 | 4% | 1 | -4% | 6 | 1.7
O=C(Nc1nc2c(s1)CN(Cc1ccccc1)CC2)c1c(F)cccc1F | -3 | -14% | -5 | -9%[15.4 µM] | -6 | -2.3
C=CCn1c(-c2ccccc2OC)n[nH]c1=S | 1 | 12% | -12 | 15% | 2 | 1.8
CC(=O)N1CCN(C(=O)c2ccc3oc(CCCc4ccccc4)nc3c2)CC1 | 1 | 11% | -17 | 24% | 2 | -4.2
CC(=O)N1CCc2cc(Br)cc(S(=O)(=O)N3CCc4ccccc43)c21 | -7 | nt | -14 | 2%[15.4 µM] | -3 | 7.0

Records listed above marked active in CtBP-E1A blk:
| compound | CtBP-E1A blk | D2 potentiator | gsp agonist | Six1-Eya2 blk | D2 agonist |
| --- | --- | --- | --- | --- | --- |
| Cc1nnc(NC(=O)C2CCN(S(=O)(=O)c3cc([N+](=O)[O-])ccc3Cl)CC2)o1 | -82* | 2 | -29% | -69* | ? |

The list goes on:
smiles | CtBP-E1A blk | gsp antag | D2 potentiator | gsp agonist | Six1-Eya2 blk | D2 agonist
Cc1cc(Br)ccc1NC(=O)c1ccco1 | 2 | 5% | -1 | -1%[15.4 µM] | 1 | -0.9
Cc1ccc(NC(=O)c2cncc(Br)c2)c(O)c1 | 2 | 2% | 0 | 13%[15.4 µM] | 8 | 1.9
O=C1Nc2ccccc2C1=Nc1ccc(S(=O)(=O)Nc2nccs2)cc1 | -20 | -13% | 3 | -11%[15.4 µM] | ? | 0.0
Cc1c(NC(=O)CSc2nnc(Nc3ccccc3)s2)c(=O)n(-c2ccccc2)n1C | 1 | 13% | -17 | -17% | -6 | -0.8
O=C(NC1CC1)c1ccc(NC(=O)C2CCCC2)cc1 | 3 | 3% | nt | nt | -7 | 0.8
CCN(CC)CCCn1c2c(c(SCC(=O)Nc3ccc(C)c(F)c3)nc1=O)CCC2 | 0 | 10% | -7 | -5% | -1 | -2.3
C[C@H](NC(=O)C1CCN(S(=O)(=O)c2ccccc2)CC1)C(=O)NCc1ccccc1 | 7 | 15% | -9 | 4% | 5 | -4.6
c1ccc(CNc2nc(-c3cccnc3)cs2)cc1 | 0 | -1% | -5 | -23% | -6 | 3.3
CC(C)(C)n1nnnc1C(c1cccnc1)N1CCN(C2CCCCC2)CC1 (stereo not drawn) | 8 | 10% | -24 | -12% | 5 | 0.1
CCOc1ccc(C2=Nn3c(nnc3-c3ccccc3OC)SC2)cc1 | -8 | 16% | 4 | 0% | -14 | 4.4
CCN(CCCNC(=O)c1c(C)cc(=O)oc1C)c1ccccc1 | -27 | 0% | -3 | 6% | -8 | 0.1
CC(C)(C)Nc1c(-c2ccc(O)cc2)nc2ccc(Cl)cn12 | 13 | 2% | -1 | -14% | -4 | -1.6
CCOc1cccc(/C=N/NC(=O)c2cc(C3CC3)[nH]n2)c1O | nt | -16% | -14 | -11% | -86* | -2.1
COCCNc1nc(NCc2ccccc2)c2cnn(C)c2n1 | nt | 8% | -7 | -1% | 3 | 0.2
Cc1ccc(C2C=C(c3ccccc3)Nc3ncnn32)cc1 (stereo not drawn) | -4 | -7% | 2 | ? | 12 | -2.8
Cc1ccc(OCc2cc(C(=O)NCc3ccc(OC(F)(F)F)cc3)no2)cn1 | 1 | -2% | -6 | 26% | 0 | -5.7
COc1ccccc1NC(=O)Nc1nnc(Cc2ccccc2F)s1 | nt | 2% | -11 | -2% | 3 | 0.4
CSc1ncccc1C(=O)Nc1ncc(C)s1 | 3 | 3% | -8 | -37%[inhibitor][15.4 µM] | 1 | -1.8
O=C(N/N=C/c1ccc(F)cc1)c1sccc1OCc1ccc(F)cc1 | 1 | 20% | -1 | ? | 5 | -1.4
CC(=O)N1c2c(cc(Br)cc2S(=O)(=O)N2CCN(c3ccccn3)CC2)CC1C (stereo not drawn) | -6 | ? | 2 | -8% | -6 | -0.4
COc1ccccc1C(=O)Nc1ccc(S(=O)(=O)N2CCc3ccccc32)cc1 | 4 | -12% | 0 | -26% | 0 | -2.7
O=C(C[n+]1ccc(C(=O)NCc2ccccc2)cc1)c1ccc(OC(F)F)cc1 | 2 | 3% | -6 | -14% | 7 | -1.9
CC(=O)NC1CC2CCCC(C1)N2Cc1ccc(C)cc1 (stereo not drawn) | nt | 6% | -67 | ? | 7 | -3.6
COc1ccc2[nH]c3c(=O)n(/N=C/[C@H]4C(C)C=C(C)CC4C)c(=O)[nH]c3c2c1 (stereo partly drawn) | -4 | -31% | 19 | -8% | -4 | 2.7
Cc1ccc(-c2nnc(SCC(C)C)n2C)cc1 | 4 | 7% | 3 | ? | 2 | -3.6
O=C(NCCc1ccccc1)C(=O)NCC1OCCN1S(=O)(=O)c1cccs1 (stereo not drawn) | 0 | 8% | 7 | 4% | 0 | 3.9
O=C(COC(=O)CNS(=O)(=O)c1ccc(Br)cc1Cl)NC1CCCC1 | 0 | -6% | 4 | -31%[15.4 µM] | 3 | -3.2
C/C(=N\NC(=O)c1csc(C)c1C)c1ccc(C)s1 | 0 | -9% | -11 | ? | 2 | -8.0

Source: PubChem
